Anaer choline gr: growth inhibitors of anaerobic choline-fed gram-negatives, minimal medium, absorbance; Gram-negative bacterium anaerobic choline minimal medium; active compounds read low; many inactives read as strong as hits in the columns shown; calls only; 0.2% of 55,000 active;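 active means growth z-score on choline under -2 at 7 or 20 h with little or no fall on glycerol, limits in tiers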;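 further: stock transfer was 300 nL into about 50 µL; the organism is E. coli; final concentration not given here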
Anaer choline gr early: recorded beside Anaer choline gr, whose call it bears; z-score; measured here: choline growth z-score, timepoint 1;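 score of optical density at 7 h as mean of two plates; lower means less growth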
* = called active by the depositor; i = inactive; & = joins results of further samples. Not all compounds are listed; count on the stated rates, not on these rows.

SMILES	Anaer choline gr	Anaer choline gr early
COC(=O)CNC(=O)N1CCCC1c1cc(C)no1 (stereo unspecified)	i	0.43
Cc1ccc(N(Cc2nc3nc(C)cc(=O)n3[nH]2)C(=O)Cc2ccccc2)cc1	i	-0.34
CC1CN(S(C)(=O)=O)c2cc(Cl)ccc2O1 (stereo unspecified)	i	1.2
CCN(C(=O)CSc1nc2ncccc2o1)c1ccccc1	i	-0.55
Cc1nn(CC(=O)N2CCN(c3ccccc3F)CC2)c(=O)c2cccn12	i	0.47
Cc1cc(-n2nnc(C(=O)OCc3ccc(F)cc3)c2C)ccc1Br	i	1.8
CC(C)Oc1ccc(C(=O)Oc2cccc(-n3cnnn3)c2)cc1	i	-0.31
O=C(NCCc1cccs1)C1CCN(c2nc3nc[nH]c(=O)c3s2)CC1	i	0.23
Cc1cccc(C)c1-n1nnnc1C(C)(C)Nc1ccc2c(c1)OCCO2	i	-0.29
Cc1cc(C(=O)NCCCN2CCCCC2)c2c(=O)n(C)c(=O)n(C)c2n1	i	-0.07
CCN(C(=O)CN1C(=O)C(C)CSc2ccc(S(=O)(=O)N3CCCC3)cc21)c1ccccc1 (stereo unspecified)	i	-0.14
COc1ccc(NC(=O)c2sc3nc(N4CCCC4)c4c(c3c2N)CCCC4)cc1	i	-0.68

Looked up above.
Cc1nn(CC(=O)N2CCN(c3ccccc3F)CC2)c(=O)c2cccn12 in Anaer choline gr early is listed with 0.47
Cc1cc(C(=O)NCCCN2CCCCC2)c2c(=O)n(C)c(=O)n(C)c2n1 in Anaer choline gr early is listed with -0.07

The list continues.
SMILES	Anaer choline gr	Anaer choline gr early
O=C(Nc1ccccc1)C1Oc2ccccc2NC1=O (stereo unspecified)	i	0.24
Cc1c(C(=O)Nc2ccc(S(N)(=O)=O)cc2)nnn1-c1ccc(Cl)cc1	i	0.44
Cc1ccccc1CNC(=O)C1(C)CCCN(S(=O)(=O)c2c(C)noc2C)C1 (stereo unspecified)	i	0.43
O=C(Nc1ccccc1)C1CC(=O)N(CCc2c[nH]c3ccc(Cl)cc23)C1 (stereo unspecified)	i	-0.92
Cn1nc(-c2nc(-c3ccccc3)no2)c2c1CCN(S(=O)(=O)c1ccc(C(C)(C)C)cc1)C2	i	0.11
Cc1cc(C)cc(NS(=O)(=O)c2cc(-c3nc(C)c(C)s3)sc2C)c1	i	1.1
CCCCC(=O)Nc1ccccc1-c1nc(-c2cccc(C)c2)no1	i	1.6
CCN1CCN(C(=O)c2cc(C)n(CCN3CCCC3)c2C)CC1	i	-1.1
Cc1nc(-c2cc(S(=O)(=O)NCc3ccc(F)cc3F)c(C)s2)cs1	i	-0.45
Cc1ccc(NC(=O)c2nc3ccccc3nc2N2CCCC2)c(C)c1	i	-0.6
O=C(NC1CCCCC1)c1n[nH]c2c1CCCC2	i	-0.63
CCC(C(=O)NCc1ccc2c(c1)OCO2)N1CCN(Cc2ccc(F)cc2)C(=O)C1=O (stereo unspecified)	i	-1.1
CCc1onc(C)c1C1CCCN1Cc1ccc(N(C)C)cc1 (stereo unspecified)	i	-0.79
NC(=O)C1CCCN1C(=O)C(Cc1cnc[nH]1)NC(=O)C1CCC(=O)N1 (stereo unspecified)	i	0.08
CCCN(CCC)S(=O)(=O)c1ccc2c(c1)N(Cc1noc(C)n1)C(=O)CO2	i	0.26
Cn1ncc2c(N3CCCC3)nc(N3CCC(N4CCCCC4)CC3)nc21	i	0.67
COCCNC(=O)Cn1c(=O)c(=O)n(Cc2ccncc2)c2ncccc21	i	1.6
CC(=O)N1CCc2c(sc3c2c(=O)n(Cc2ccccc2)c(=O)n3Cc2ccccc2F)C1	i	0.34
CCn1c(SCC(=O)NCC2CCCO2)nc2c(c1=O)SCC2 (stereo unspecified)	i	-0.41
O=C(Cn1c(=O)c2cccn2c2ccc(F)cc21)NCCCN1CCC(N2CCCCC2)CC1	i	-0.05
CC(C)NC(=O)Nc1cc2c(cc1Oc1ccccc1)n(C)c(=O)n2C	i	0.55
O=C(C1CCN(c2ncnc3c2sc2cccc(F)c23)CC1)N1CCC(Cc2ccccc2)CC1	i	1.1
COc1ccc(NC(=O)C2CCN(C(=O)c3ccc(-c4noc(C)n4)cc3)CC2)cc1	i	0.26
O=C(Nc1ccccc1F)c1nc(N2CCCCC2)c2oc3ccccc3c2n1	i	0.17

Whole records, quoted from the list. Order of values: Anaer choline gr, Anaer choline gr early
`O=C(Nc1ccccc1F)c1nc(N2CCCCC2)c2oc3ccccc3c2n1` in the list: i, 0.17
`COc1ccc(NC(=O)c2sc3nc(N4CCCC4)c4c(c3c2N)CCCC4)cc1` in the list: i, -0.68
`Cc1cc(C)cc(NS(=O)(=O)c2cc(-c3nc(C)c(C)s3)sc2C)c1` in the list: i, 1.1
`Cc1nc(-c2cc(S(=O)(=O)NCc3ccc(F)cc3F)c(C)s2)cs1` in the list: i, -0.45
`Cc1nn(CC(=O)N2CCN(c3ccccc3F)CC2)c(=O)c2cccn12` in the list: i, 0.47

More compounds follow:
SMILES	Anaer choline gr	Anaer choline gr early
C=CCc1ccccc1OCc1nc2ccc(C)cc2[nH]1	i	-0.85
CN1C(=O)C(C)(C)c2cc(S(=O)(=O)NCc3ccc(Br)cc3)ccc21	i	-0.9
COc1cccc(NC(=O)c2sc(-n3[nH]c(C)c(Cc4ccccc4)c3=O)nc2C)c1	i	-0.17
Cc1ccnc(N2CCC(C(=O)NCc3cccc(Cl)c3)CC2)n1	i	-0.32
O=C(CSc1nnc2sc3ccccc3n12)N1c2ccccc2CCc2ccccc21	i	-0.05
O=C(NCc1ccc(Cl)cc1)c1cccn1-c1cccnc1	i	-1.2
CC1=C2C(=NCCN1)C(=O)N(c1ccccc1)C2c1cccnc1 (stereo unspecified)	i	0.43
COC(=O)c1c(NC(=O)CS(=O)(=O)c2ccc(C)cc2)sc2c1CCCCC2	i	1.1
CCCNC(=O)c1[nH]nc2c1CCc1cc(OC)ccc1-2	i	-0.2
COc1ccc(-n2ccn3c(=O)[nH]nc3c2=O)cc1	i	-0.1
Cc1ccc(C(=O)Cn2nc3n(CCC(C)C)c(=O)c4ccc(C(=O)NC(C)C)cc4n3c2=O)c(C)c1	i	0.93
COc1ccc(NC(=O)N2CCN(c3cc(N(C)C)nc(C)n3)CC2)cc1	i	0.11

By substructure, the entries above with a Cl atom
SMILES	Anaer choline gr	Anaer choline gr early
CC1CN(S(C)(=O)=O)c2cc(Cl)ccc2O1 (stereo unspecified)	i	1.2
Cc1c(C(=O)Nc2ccc(S(N)(=O)=O)cc2)nnn1-c1ccc(Cl)cc1	i	0.44
O=C(Nc1ccccc1)C1CC(=O)N(CCc2c[nH]c3ccc(Cl)cc23)C1 (stereo unspecified)	i	-0.92
Cc1ccnc(N2CCC(C(=O)NCc3cccc(Cl)c3)CC2)n1	i	-0.32
O=C(NCc1ccc(Cl)cc1)c1cccn1-c1cccnc1	i	-1.2

Remaining list, next part:
SMILES	Anaer choline gr	Anaer choline gr early
O=C(c1csc(S(=O)(=O)N2CCOCC2)c1)N1CCOCC1	i	0.5
O=C(NCC1CC1)C1CCN(c2cncnc2N2CCOCC2)CC1	i	0.43
Cc1cccc(NC(=O)Nc2nnc(CC(=O)NCc3ccccc3)s2)c1C	i	1
Cc1nc2ncnn2c(Sc2ccc(NS(=O)(=O)c3ccc(Br)cc3)cc2)c1C	i	0.61
O=C(CCC(=O)N1CCCN(c2nc3cccnc3s2)CC1)NCCCN1CCCCC1	i	-0.33
Cn1ncc2c(Nc3ccccc3)nc(N3CCC(N4CCCCC4)CC3)nc21	i	-1.2
O=S1(=O)C[C@H](NCc2ccc3c(c2)OCO3)[C@@H](S(=O)(=O)c2ccccc2)C1	i	1.3
O=S(=O)(c1ccc2nc(N3CCc4ccccc43)ccc2c1)N1CCCC1	i	-1.1
CC(=O)N1CCCc2cc(S(=O)(=O)N3CCCC(C(=O)N4CCN(c5ccccn5)CC4)C3)ccc21 (stereo unspecified)	i	-0.05
O=C(Nc1cccnc1)C1CCN(S(=O)(=O)c2ccc(-c3noc(C4CC4)n3)cc2)CC1	i	-0.13
CCOC(=O)C1CCN(c2c(NCCc3ccc(Cl)cc3)c(=O)c2=O)CC1	i	-0.52
COCCn1c(CN2CCN(S(=O)(=O)c3ccccc3)CC2)nc2ccccc2c1=O	i	-0.07
CC1CCN(C(=O)CCSc2nc(-c3ccc4c(c3)OCO4)cc(C(F)(F)F)n2)CC1	i	-0.68
CCn1ccc2cc(S(=O)(=O)N3CCCC(C(=O)N4CCCC(C)C4)C3)ccc21 (stereo unspecified)	i	0.93
Cc1ccc(C2CC(=O)Nc3c2c(-c2ccccc2)nn3-c2ccccc2)cc1 (stereo unspecified)	i	-0.12
COCCN1CCc2nc(SCc3cccc(Cl)c3)[nH]c(=O)c2C1	i	-0.13
O=C(NCC1CCCO1)c1c(NC(=O)c2nn(-c3ccc(F)cc3)ccc2=O)sc2c1CCC2 (stereo unspecified)	i	0.46
CC(C)c1cccc(NC(=NCc2ccncc2)NC(=O)c2ccc3c(c2)OCO3)c1	i	-0.65
Cn1c(=O)n(-c2ccc3c(c2)OCO3)c2nc(-c3cccc(Cl)c3)nc(C(N)=O)c21	i	-1.5
CC(=O)OC1CC2CCC1(C)C2(C)C (stereo unspecified)	i	-0.37
COC(=O)c1sc(NC(=O)c2snnc2C)nc1C	i	-2.9
CO[C@@]1(NC(=O)Cc2cccs2)C(=O)N2C(C(=O)O)=C(COC(N)=O)CS[C@@H]21	i	-2.7
CC(C)OCCCN1C(=O)Cn2cccc2C1C(=O)NC1CCCCC1 (stereo unspecified)	i	-2.5
COc1ccc(-c2nnc(SCC(=O)c3ccccc3)n2-c2ccccc2)cc1	i	0.75
Cc1ccc(Cc2nc(-c3cccc(NC(=O)Nc4ccccc4)c3)no2)cc1	i	1.9
Cc1nn(-c2ccccc2)c2c1C(c1cccnc1)C1=C(CC(c3ccc(O)cc3)CC1=O)N2 (stereo unspecified)	i	-0.47
COc1ccc(-c2nnc(-c3ccccc3)o2)cc1S(=O)(=O)N1CCc2ccccc2C1	i	0.88
Cn1c(=O)sc2cc(S(=O)(=O)N3CCN(c4ccccn4)CC3)ccc21	i	-0.72
O=C(Cn1c(=O)c2ccccc2n2c(=S)sc(-c3ccc(Br)cc3)c12)N1CCCC1	i	0.18
CS(=O)(=O)N1CCN(c2ccc(Nc3c4c(nc5nc(-c6ccccc6)nn35)CCCC4)cc2)CC1	i	-0.18
CN(C)c1nc2ncnc(SCC(=O)Nc3ccc(F)c(F)c3)c2s1	i	0.14
Cc1nn(-c2ccc(C(=O)NCC3CCCO3)cc2)c2c1C(=O)CC(C)(C)C2 (stereo unspecified)	i	0.14
O=C(Oc1ccccc1Cl)c1cc(-c2ccc3c(c2)OCCO3)on1	i	0.91
Cc1cc(C)cc(-n2ccn3c(SCC(=O)c4cc(C)c(C)cc4C)nnc3c2=O)c1	i	0.56
CC(C)c1csc(-c2ccc(S(=O)(=O)NCCN3CCCCC3C)s2)n1 (stereo unspecified)	i	-1.9
CCc1ccc2c(c1)[C@H]1OCC[C@H]1C(c1cc(Cl)c(OC)c(OC)c1)N2 (stereo partly specified)	i	-0.03
CC(C)NC(=O)CCn1c(=O)c2ccccc2n2c(SCc3ccccc3Cl)nnc12	i	-1.7
COc1cc(C(=O)N2CCN=C2N2CCCC2)cc(OC)c1OC	i	0.47
O=C(NCCCc1ccccc1)c1ccc(Oc2nccnc2N2CCCCC2)cc1	i	-1.9
CC(=O)Nc1ccc(S(=O)(=O)N2CC=C(c3c(C)n(Cc4ccc(F)cc4)c4ccccc34)CC2)cc1	i	0.19
Cn1cc(S(=O)(=O)N2CCCCC2)cc1C(=O)N1CCN(c2cccc(Cl)c2)CC1	i	0.03
COC(=O)c1cccc(Nc2c(-c3cc(Br)ccc3O)nc3nc[nH]n23)c1	i	-0.78
COc1ccc(-c2nc(C)c3c(n2)N(CC2COCCO2)C(=O)C3)cc1 (stereo unspecified)	i	1
CCCC(=O)NC1CC(=O)N(c2ccc3c(c2)OCCO3)C1 (stereo unspecified)	i	-0.91
CC(C)Cn1c(=O)c2ccccc2n2c(=O)n(CC(=O)Nc3cccc(Cl)c3)nc12	i	-0.12
CCN(CC)S(=O)(=O)c1ccc2c(c1)ncn2CCC(=O)N1CCN(c2ccccn2)CC1	i	-1.1
COc1ccccc1NC(=O)n1ncc2c(C)cccc21	i	0.78
O=C(C1CCN(c2nc3nc[nH]c(=O)c3s2)CC1)N1CCN(C2CCCCC2)CC1	i	0.6

Exported with bars between the fields: entries from further up
mol | Anaer choline gr | Anaer choline gr early
O=C(C1CCN(c2ncnc3c2sc2cccc(F)c23)CC1)N1CCC(Cc2ccccc2)CC1 | i | 1.1
COc1ccc(-c2nnc(SCC(=O)c3ccccc3)n2-c2ccccc2)cc1 | i | 0.75
O=S1(=O)C[C@H](NCc2ccc3c(c2)OCO3)[C@@H](S(=O)(=O)c2ccccc2)C1 | i | 1.3

(more compounds)
SMILES	Anaer choline gr	Anaer choline gr early
COc1nc(-c2ccc(Cl)cc2)ccc1-c1noc(COc2ccccc2)n1	i	2.5
CC12C(=O)OC(=O)C1(C)C1CCC2O1 (stereo unspecified)	i	0.21&0.53
O=C(C1CCN(c2ccc(Cl)cc2)C1=O)N1CCOCC1 (stereo unspecified)	i	0.27
C#CCOc1ccc(C2Nc3ccc(CC)cc3[C@H]3OCC[C@@H]23)cc1 (stereo partly specified)	i	1.1
CN(C)C(=O)c1ccc2c(c1)nc(CN(C)S(=O)(=O)c1ccccc1Br)n2C	i	0.96
COc1ccc(OC)c(NC(=O)Cn2c(=O)n(-c3cccc(C)c3)c(=O)c3c2c2cc(C)ccc2n3C)c1	i	-0.12
CCOC(=O)c1noc2nc(C)n(CC(=O)Nc3ccc(C)c(F)c3)c(=O)c12	i	1
O=C1COc2ccc(S(=O)(=O)NC3CCCC3)cc2N1Cc1noc(C2CC2)n1	i	-1.7
COc1ccc(N2CCN(C(=O)C3CCCN(C(=O)c4cc(-c5ccncc5)n[nH]4)C3)CC2)cc1 (stereo unspecified)	i	0.25
Cn1c(SCC(=O)N2CCc3ccccc32)nnc1-c1cc2ccccc2o1	i	-0.33
CCC(Oc1ccccc1)C(=O)Nc1cc(Cl)ccc1OCc1cc(=O)n2oc(C)cc2n1 (stereo unspecified)	i	-0.67
CNC(=O)C1CCCN(c2nc3ncn(CC(=O)NCCC4=CCCCC4)c(=O)c3s2)C1 (stereo unspecified)	i	-0.09

High-throughput results: PubChem BioAssay, ICCB-Longwood Screening Facility, Harvard Medical School
